From PubChem BioAssay
PKD1 kinase inh: inhibitors of human PKD1 kinase; PKD1 kinase fluorescence polarization assay; inhibition, %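 (about 10 µM by stock and volumes)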; 200,000 tested, 0.056% active; AID 797;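 active = inhibition of 50% or more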;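 note: controls were vehicle for no effect and a reference inhibitor for full effect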
Insulin prom inh: TRM-6 insulin promoter activity inhibition; TRM-6 cells (human fetal islet line), insulin promoter-eGFP reporter, imaging; reporter expression induced with tamoxifen; AID 1273; 130,000 tested, 0.9% active; inhibition, % at 2 µM;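 active = inhibition above the mean plus 3 SD, with well images judged a real hit on visual review, cut at about 60% in these data, passing the limit was not always enough; inconclusive = inhibition over the cutoff but images rejected on review; inactive = inhibition not above the cutoff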
RGS16-Gao: modulates binding between human RGS16 and Galphao; O15492+P09471; bead-based flow cytometry RGS16-Galphao binding, fluorescence; actives lie on both sides; binding response (% of control), % at 10 µM; 220,000 tested, 0.38% active; AID 1441;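 active = below 25% or above 175%, edge rows of some plates excepted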;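 note: Galphao activated by GDP with aluminum fluoride before binding; 100% = wells without compound and 0% = beads without RGS; some results beyond the cut were filed as inactive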
Target sequence (O15492 whole entry, looked up): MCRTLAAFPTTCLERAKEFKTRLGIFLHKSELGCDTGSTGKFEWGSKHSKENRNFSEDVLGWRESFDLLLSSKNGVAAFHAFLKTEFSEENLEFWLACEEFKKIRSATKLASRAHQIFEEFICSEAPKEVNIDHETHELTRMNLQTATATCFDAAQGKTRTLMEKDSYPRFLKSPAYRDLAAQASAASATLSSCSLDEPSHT
Target sequence (P09471 whole entry, looked up): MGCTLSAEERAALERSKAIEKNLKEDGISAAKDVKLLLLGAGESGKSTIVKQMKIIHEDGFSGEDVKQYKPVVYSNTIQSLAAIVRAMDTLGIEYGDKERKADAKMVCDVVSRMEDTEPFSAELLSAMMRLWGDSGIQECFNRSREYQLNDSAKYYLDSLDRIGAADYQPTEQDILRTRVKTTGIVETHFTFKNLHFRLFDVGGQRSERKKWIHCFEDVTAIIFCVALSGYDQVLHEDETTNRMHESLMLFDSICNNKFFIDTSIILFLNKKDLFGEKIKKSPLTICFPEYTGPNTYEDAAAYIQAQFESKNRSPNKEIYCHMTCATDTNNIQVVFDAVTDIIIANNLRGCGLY
HSV replic up: increases HSV replication in cells. HSV replication augmentation in cells, fold increase. maximum fold increase. 220,000 tested, 0.005% active. AID 1956;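 active = peak rise of 1.5-fold or more in the series; inconclusive = self-fluorescent or not available for retest; tested in PC3 cells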;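 note: first round at 10 µM; read as green reporter fluorescence; hits show the peak of a series up to 25 µM; 1 = signal of infected wells without compound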
GALR2 ag: activates the human galanin receptor 2 | O43603 | GALR2-expressing cells, agonist activation read-out | activation, %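 (tested at 5 µM)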 | 140,000 tested, 0.48% active | AID 803;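 active = above mean plus 3 SD of all compounds, about 5% in these data, not always enough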;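 note: 0% = vehicle buffer wells and 100% = reference agonist at full effect; tested in CHO reporter cells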
Target sequence (O43603 whole entry, looked up): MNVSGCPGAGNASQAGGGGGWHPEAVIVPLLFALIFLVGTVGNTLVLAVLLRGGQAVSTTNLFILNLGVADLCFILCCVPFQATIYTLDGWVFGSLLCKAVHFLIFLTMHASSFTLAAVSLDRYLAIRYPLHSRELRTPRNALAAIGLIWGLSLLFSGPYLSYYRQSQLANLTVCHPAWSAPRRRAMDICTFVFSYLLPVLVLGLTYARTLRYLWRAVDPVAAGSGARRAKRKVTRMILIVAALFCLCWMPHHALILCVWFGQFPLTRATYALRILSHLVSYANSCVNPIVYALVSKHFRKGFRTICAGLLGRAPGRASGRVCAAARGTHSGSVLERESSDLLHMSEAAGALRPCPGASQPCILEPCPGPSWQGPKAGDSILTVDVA
Insulin prom inh cell count: second read-out of Insulin prom inh, no call of its own (marks repeat the call); normalized cell count, %; measured here: cell count, toxicity; reference of the scale not given here;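 cells exposed to compound for 48 h; stained nuclei by imaging scaled within each plate; lower means fewer cells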
HSV replic up primary fold: further read-out of HSV replic up, marked with its call; fold increase; compound at 10 µM; measured here: primary screen fold increase 10 uM; tested in PC3 cells;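 GFP signal in the first replicate; 1 = infected wells without compound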
* = called active by the depositor; i = inactive; ? = inconclusive; . = not tested or not shown. An unsorted share of the library. Share with any hit: about 1.3%.

Values in the order – PKD1 kinase inh, Insulin prom inh, Insulin prom inh cell count, RGS16-Gao, HSV replic up, HSV replic up primary fold, GALR2 ag
COc1ccc(CC(=O)NC(C)(C)C)cc1S(=O)(=O)N1CCOCC1
 : 7.6, ., ., 110.8, i, 1, -1.5
COc1ccc(-c2cc(-c3ccccc3)nc(SCC(=O)Nc3ncc(C)s3)c2C#N)cc1
 : 10.1, ., ., 62.8, i, 1.05, -0.3
C/C(=N\NC(N)=S)c1ccc(-n2ccnc2)cc1
 : ., ., ., 100.8, i, 0.84, .
COc1cc(/C=N/S(=O)(=O)CCc2ccccc2)cc(OC)c1O
 : 8.9, ., ., 96.4, i, 0.97, -1.1
CC(C)(C)C(=O)CN1CCN(C2c3ccccc3-c3ccccc32)CC1
 : 3.6, ., ., 106.0, i, 1, -0.8
COC(=O)c1cccc(COC(=O)c2ccc(CS(=O)(=O)c3ccc(C)cc3)cc2)c1
 : -5.1, -32.4, 62.5, 102.9, i, 0.84, 0.1
CC1(C)CC(=O)C2=C(C1)N(c1ccccc1)C(=O)C2(O)C(F)(F)F (stereo unspecified)
 : -4.1, 3.7, 113.1, 93.2, i, 0.96, -0.8
Cc1oc2cc(O)ccc2c(=O)c1Oc1ccccc1
 : 3.3, 0.0, 99.7, 97.0, i, 0.85, -2.4
O=C(NCC(c1cccnc1)N1CCN(c2ccccc2)CC1)c1ccco1 (stereo unspecified)
 : -9.3, -125.0, 141.2, ., i, 1, -1.6
Cn1cccc1CC(=O)NNC(=S)Nc1ccc(Cl)cc1Cl
 : -18.1, 33.3, 93.0, 99.1, i, 1.09, -2.0
CC(C)(C)NC(=O)COC(=O)c1ccccc1NC(=O)c1ccco1
 : -4.4, ., ., 102.2, i, 1.1, .
Cc1ccc(NC(=O)COc2ccc(Br)cc2CO)cc1
 : -14.3, 20.0, 91.0, 103.4, i, 0.94, -0.4
CCOC(=O)NN1C(=O)c2ccccc2NC1c1ccccc1 (stereo unspecified)
 : 1.2, -36.4, 67.6, 143.3, i, 0.94, 0.4
COCCNS(=O)(=O)c1cc(OC)c(C)cc1C
 : 5.3, ., ., 103.0, i, 1.2, .
Cc1ccc(NC(=O)CN(C)C(=S)NC2CC2)cc1
 : -7.0, ., ., 103.5, i, 1.01, .
CCOC(=O)C1(CC2CCCCO2)CCN(C(=O)Nc2ccc3c(c2)OCO3)CC1 (stereo unspecified)
 : -2.7, ., ., 99.5, i, 0.99, .
COc1ccc(C(=O)NCCc2nnc(SCC(=O)Nc3ccccc3C(C)C)n2C)cc1
 : -3.9, -26.7, 81.1, 101.8, i, 1.09, -1.4
CN(C)CCCN(Cc1cc2cc3c(cc2[nH]c1=O)OCO3)C(=S)Nc1ccccc1
 : 5.2, ., ., 192.0, i, 0.86, .
CC(C)OC(=O)CSc1nnc(CNc2ccc(Cl)cc2)n1Cc1ccccc1
 : -7.3, 68.2, 87.2, 89.9, i, 0.93, -2.4
Cc1cc(NC(=O)COC(=O)C2CCN(C(=O)c3ccc(Cl)cc3)CC2)no1
 : -5.7, ., ., 102.3, i, 1.01, 0.1
Cc1cc(NC(=O)c2ccc(S(=O)(=O)Nc3ccccc3)cc2)no1
 : 4.2, 20.9, 64.0, 101.7, i, 0.87, -2.0
O=C(O)CCCNS(=O)(=O)c1ccc(NCc2ccccc2)c(C(=O)O)c1
 : -13.2, 18.5, 132.4, 99.7, i, 0.95, -1.9
O=C(O)C(Cc1cc2ccccc2[nH]1)N1C(=O)C2CC=C(Cl)CC2C1=O (stereo unspecified)
 : 2.4, -13.9, 207.5, 104.1, i, 0.84, -0.9
O=C(Nc1ccc2nc(-c3cccs3)[nH]c2c1)c1cccs1
 : -2.1, 66.7, 168.8, 89.6, i, 0.85, -1.4
CC1=[N+]([O-])C(C)(C)CC(C)(C)c2ccccc21
 : 26.3, ., ., 96.5, i, 1.03, -2.9
CCCCn1c(N)c(N(CC)C(=O)c2ccc3c(c2)S(=O)(=O)c2ccccc2C3=O)c(=O)[nH]c1=O
 : -7.8, ., ., 82.5, i, 0.99, -2.2
COc1cccc(Cn2cc(N)cn2)c1
 : -4.1, -18.5, 76.1, 91.6, i, 0.96, .
c1ccc(-c2ccccc2OCc2nnc3n2CCC3)cc1
 : 4.5, ., ., 100.5, i, 0.98, .
OCC1(Cc2ccccc2)CCCN(Cc2c[nH]c3ccccc23)C1 (stereo unspecified)
 : -0.1, ., ., 151.3, i, 0.95, .
Cc1cccc(C(=O)Nc2ccc(N3CCN(c4ccc(C(F)(F)F)cn4)CC3)nc2)c1
 : ., ., ., 99.0, i, 1.01, .
CC(C)c1[nH]nc2c1C(c1ccco1)C(C#N)=C(N)O2 (stereo unspecified)
 : -0.1, ., ., 102.6, i, 1.01, .
O=C(c1ccc(Cn2c(=S)[nH]c3ccc(N4CCOCC4)cc3c2=O)cc1)N1CCN(c2ccc(F)cc2)CC1
 : 3.2, ., ., 95.3, i, 1.08, .
CCCC(C)NC(=S)Nc1cc(C)cc(C)c1 (stereo unspecified)
 : 3.3, 0.0, 84.8, 101.3, i, 0.91, .
CSCC[C@H](NC(=O)c1cc([N+](=O)[O-])ccc1Cl)c1nc2ccccc2[nH]1
 : -4.6, -2.0, 120.0, 103.3, i, 0.96, -0.6
N#Cc1cnn2cc(CCN3CCOCC3)c(-c3ccc(F)cc3)nc12
 : -1.3, ., ., 101.6, i, 1.22, .
N#CC1CCCc2c1[nH]c1ccc([N+](=O)[O-])cc21 (stereo unspecified)
 : ., ., ., 122.8, i, 1.02, .
c1ccc(C2c3[nH]c4ccccc4c3CCN2Cc2cccn2-c2ccccn2)nc1 (stereo unspecified)
 : ., ., ., 102.0, i, 0.98, .
O=C(COC(=O)C1(c2ccccc2F)CCCC1)NCc1ccc2c(c1)OCO2
 : -2.0, 23.3, 98.6, 95.2, i, 0.96, -1.2
O=C(N/N=C/c1ccc(-c2ccccc2Cl)o1)c1ccccc1
 : 2.7, 5.6, 152.6, 94.7, i, 0.76, .
CCCCn1c(SCC(=O)Nc2cc(C(F)(F)F)ccc2Cl)nnc1C(CC)N(C)C (stereo unspecified)
 : -11.5, -56.8, 87.2, 91.7, i, 0.85, 0.3
Cc1cccc(-c2nc(CSCC(=O)NCCCN3CCOCC3)c(C)o2)c1
 : 4.9, -85.7, 88.0, 104.5, i, 0.83, -4.3
Cc1c(C(=O)Nc2nc3ccccc3[nH]2)oc2ccccc12
 : 6.3, -13.3, 114.3, 96.1, i, 0.83, -1.8
c1ccc(Oc2cccc(OCCn3cncn3)c2)cc1
 : -8.6, -5.7, 107.1, 79.2, i, 0.97, -3.5
Cc1ccc(N(CCC#N)C(=O)CCl)cc1C
 : -0.9, 32.4, 51.5, 21.1*, i, 0.98, -0.9
CCOc1ccc(S(=O)(=O)N(CC)CC)cc1N
 : -11.5, ., ., 100.5, i, 0.93, .
CC(=O)Nc1cccc(-c2csc(Nc3cccc(C)n3)n2)c1
 : -11.5, -16.7, 97.1, 105.5, i, 0.77, 0.6
COC(=O)c1ccc(Nc2cc(C)nc3ccccc23)cc1
 : ., ., ., 101.2, i, 0.71, .
CC(NC(=O)C(c1ccccc1)c1ccccc1)C(=O)N1CCCCC1 (stereo unspecified)
 : 4.8, -77.8, 50.3, 96.5, ?, ., .
CCOC(=O)c1c2c(c(=S)n(-c3ccccc3)c1N)CCC2
 : 0.0, -66.7, 120.5, 116.2, i, 1.13, 0.0
CC1Cc2nc(SCC(=O)Nc3ccc(F)cc3)n(C)c(=O)c2S1 (stereo unspecified)
 : -4.2, 9.1, 119.1, 96.5, ., ., -1.1
Fc1ccc(-n2nnc(-c3nccs3)n2)cc1
 : -9.2, ., ., 98.4, i, 0.88, .
CC(C)N1C(=O)CSC1c1ccc(Br)cc1 (stereo unspecified)
 : -5.9, 10.0, 125.4, 102.2, i, 0.97, .
CCOC(=O)c1ccccc1NC(=O)CSc1nnc(Cc2cccn2C)n1-c1ccc(F)cc1
 : 3.0, ., ., 99.1, i, 0.96, 0.1
O=S(=O)(c1ccc(Br)cc1)N1CCCN(Cc2cccc(F)c2)CC1
 : -8.7, 0.0, 104.5, 102.2, i, 1.07, -1.5
CC(C)(C)OC(=O)NC1CONC1=O (stereo unspecified)
 : 5.0, -8.3, 78.0, 110.5, i, 0.94, -0.5
CCOCCCNC(=O)COc1ccc(OC)cc1
 : 4.2, 31.5, 55.9, 115.3, ., ., -4.2
CC1(c2ccccc2)NC(=O)N(CC(=O)Nc2cc(S(=O)(=O)N3CCOCC3)ccc2Cl)C1=O (stereo unspecified)
 : -3.9, -78.6, 97.1, 101.8, i, 0.95, .
O=S(=O)(Nc1nc2c(s1)CCCC2)c1ccc(F)cc1
 : -8.4, 51.4, 163.6, 108.8, i, 0.79, -1.1
O=C(Nc1ccccc1)N1N=CCC1c1ccccc1 (stereo unspecified)
 : 6.8, -10.0, 116.6, 92.6, i, 0.98, .
CC(/C=N/NC(=O)c1cc(-c2ccc(C)o2)[nH]n1)=C\c1ccccc1
 : -1.7, ., ., 101.8, i, 0.92, 3.2

Remaining list, next part:
Values in the order – PKD1 kinase inh, Insulin prom inh, Insulin prom inh cell count, RGS16-Gao, HSV replic up, HSV replic up primary fold, GALR2 ag
Cc1nn(Cc2cccc(Oc3ccccc3)c2)c(C)c1NC(=O)NC12CC3CC(CC(C3)C1)C2
 : -5.2, 10.3, 127.5, 109.0, i, 0.91, -0.8
CNc1cc(N2CCN(S(=O)(=O)N(C)C)CC2)ccc1[N+](=O)[O-]
 : -9.4, ., ., 98.6, i, 0.83, .
Cc1nc2ccccc2c2oc(C(=O)N3CCc4ccccc4C3)cc12
 : -5.2, ., ., 99.0, ., ., -0.8
CCN(C(=O)c1cc2ccccc2oc1=O)c1ccccc1
 : -4.7, -10.7, 98.5, 70.1, i, 1.06, -0.9
NC(=O)CC(NC(=O)Cc1cccc2ccccc12)c1ccc(NCCOc2ccccc2)c([N+](=O)[O-])c1 (stereo unspecified)
 : ., ., ., 101.0, i, 0.955, .
C/C(N)=C(/C#N)C(=O)COC(=O)CSc1ccccc1
 : 3.2, ., ., 100.1, i, 0.96, -1.6
O=C(CNS(=O)(=O)c1ccc(Cl)cc1)N/N=C/c1ccco1
 : 8.5, 14.3, 109.9, 100.1, i, 1.05, .
O=C(O)CSC1CC(=O)N(c2ccc(Cl)c(Cl)c2)C1=O (stereo unspecified)
 : -5.4, 48.7, 140.0, 104.1, i, 0.68, 2.0
O=C(COc1cccc(Br)c1)N/N=C/C(=O)c1ccccc1
 : -4.5, 13.5, 101.5, 96.8, i, 0.88, .
Cc1ccc(C(C(=O)NCC2CCCO2)N(Cc2ccccc2)C(=O)c2ccc(-c3ccccc3)[nH]2)o1 (stereo unspecified)
 : -3.3, ., ., 100.8, i, 1.02, -1.5
COc1ccc(S(=O)(=O)N2CCSC2c2ccc(N)cc2)cc1 (stereo unspecified)
 : -0.9, ., ., 117.2, i, 1.06, -0.8
CCNS(=O)(=O)c1ccc(NC(=O)Nc2cc(C)ccc2OC)cc1
 : ., ., ., 100.9, i, 0.73, .
CN(C)S(=O)(=O)c1ccc(N2CCN(S(=O)(=O)c3ccc(F)cc3)CC2)c(Cl)c1
 : -4.0, ., ., 82.8, i, 0.96, -1.4
CCC1CCCCN1C(=O)c1sc2ncnc(N(CC)CC)c2c1C (stereo unspecified)
 : -12.6, -35.7, 109.5, 99.9, i, 0.82, .

Some of these compounds in order of the PKD1 kinase inh value, ascending.
| mol | PKD1 kinase inh |
| --- | --- |
| O=C(O)CSC1CC(=O)N(c2ccc(Cl)c(Cl)c2)C1=O (stereo unspecified) | -5.4 |
| CN(C)S(=O)(=O)c1ccc(N2CCN(S(=O)(=O)c3ccc(F)cc3)CC2)c(Cl)c1 | -4.0 |
| C/C(N)=C(/C#N)C(=O)COC(=O)CSc1ccccc1 | 3.2 |
